Screening results (PubChem BioAssay)
Beta2AR agonist – beta2AR agonists driving receptor internalization, primary screen, cell-based, FAP fluorogen, flow cytometry; response, % (no concentration beside the values); actives 0.43% (n = 340,000); Am2.2-beta2AR cells; reference of the scale not given here; AID 504454, 2011;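 active means response above a set limit, near 3 SD of response in nonfluorescent compounds, cut at about 42% in these data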;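 further: stock transfer was 100 nL into about 11 µL; a reference agonist was the positive control; negative values mostly stem from fluorescent compounds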
Target sequence (P07550 whole entry, looked up): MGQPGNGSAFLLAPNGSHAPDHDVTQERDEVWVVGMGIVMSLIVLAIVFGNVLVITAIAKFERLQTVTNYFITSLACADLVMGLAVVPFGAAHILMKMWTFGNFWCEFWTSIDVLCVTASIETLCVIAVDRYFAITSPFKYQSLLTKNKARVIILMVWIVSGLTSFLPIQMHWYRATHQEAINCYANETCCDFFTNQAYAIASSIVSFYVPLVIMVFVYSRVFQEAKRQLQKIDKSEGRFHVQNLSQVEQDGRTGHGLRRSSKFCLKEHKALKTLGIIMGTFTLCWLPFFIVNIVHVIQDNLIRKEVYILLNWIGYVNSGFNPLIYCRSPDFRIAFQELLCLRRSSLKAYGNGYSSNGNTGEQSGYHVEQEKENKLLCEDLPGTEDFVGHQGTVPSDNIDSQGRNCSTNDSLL
ALR H2O2 inh – inhibitors of human ALR sulfhydryl oxidase, primary screen, biochemical, H2O2 detection, HRP-luminol luminescence, single point; FAD-linked sulfhydryl oxidase ALR (Homo sapiens), P55789; purified ALR, DTT oxidation; inhibition, % (test concentration not listed); actives 3.8% (n = 290,000);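 active means mean and each replicate at 75% or more; inconclusive means only one of the two met; inactive means neither met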;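 further: stock transfer was 7.5 nL into about 7.5 µL; 0% = neutral wells and 100% = wells with inactivated enzyme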
Target sequence (P55789 whole entry, looked up): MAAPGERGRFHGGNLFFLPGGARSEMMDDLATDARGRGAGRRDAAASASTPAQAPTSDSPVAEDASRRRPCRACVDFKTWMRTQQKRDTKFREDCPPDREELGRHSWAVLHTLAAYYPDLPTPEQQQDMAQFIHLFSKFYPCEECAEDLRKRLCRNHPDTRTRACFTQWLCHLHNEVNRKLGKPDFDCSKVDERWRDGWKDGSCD
LANA-H2A inh – blockers of LANA interaction with H2A/H2B – biochemical, FP readout, HTS, primary screen; inhibition, % (concentration not given with the values); actives 0.6% (n = 320,000); Protein LANA1 (Human herpesvirus 8 type P (isolate GK18)), Q9QR71; cell-free LANA-H2A/H2B peptide, fluorescence polarization; in the data active means inhibition mostly above about 10%, no sharp cut-off; inactive means mostly below about 6.7%;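 further: stock transfer was 7.5 nL into about 10 µL; 0% = median of vehicle wells and 100% = median of positive control wells; one replicate is shown; the record names a cut of 25% in any replicate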
Bfl-1 A1 inh – caspase 3/7 activation in MEF A1-2A-BIM cells, primary screen, A1 inhibitor project, cell-based, luminescence, HTS | Caspase-Glo 3/7 luminescence, 3 h; percent of clofoctol response, vehicle zero | actives 0.066% (n = 330,000) | AID 2462, 2010 | caspase activation, % (test concentration not listed);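 active means over half of replicate activation scores above 10%, or exactly half above 10 with the replicate mean above 10; inconclusive means replicate mean below 10 yet half the replicates above 10; inactive means over half of replicates below 10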;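 further: wells of about 30 µL received 50 nL stock; many hits fall short of the cut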
Ecoli rRNA inh – reduced GFP signal of wild-type E. coli, primary screen, bacterial rRNA inhibitor project, GFP/RFP fluorescence, OD600, single point; GFP signal change (wild-type ribosome), % (no concentration beside the values); E. coli WT GFP vs humanized-ribosome RFP mutants, 24 h; stronger effect = lower value; DMSO median 0, no signal -100; AID 720706, 2013; actives 1.6% (n = 350,000);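 active means significant combined selectivity score with lowered wild-type GFP, culture density cut under 30%, mutant RFP and density less affected; inactive means any of these conditions unmet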; further: one replicate is shown; some compounds called inactive have numbers as strong as hits
Calb FLC – C. albicans growth inhibition with fluconazole, primary screen, CaCi-2 strain, Alamar Blue fluorescence | actives 0.57% (n = 300,000) | growth inhibition, % (test concentration not listed) | C. albicans CaCi-2 (fluconazole-resistant clinical isolate) + fluconazole, 48 h;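 active means most replicates above 75%; inconclusive means exactly half above 75%; inactive means most below 75%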;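 further: all wells also contain fluconazole at 8 µg/ml as a sub-toxic cotreatment; 0% = median of DMSO wells and 100% = median of geldanamycin control wells; wells of about 8 µL received 7.5 nL stock; the first replicate is given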
Beta cell apopt – inhibitors of cytokine-induced beta cell apoptosis, primary screen, luminescence | INS-1E cytokine-induced death, ATP luminescence, 48 h; percent of positive-control rescue, neutral wells zero | protection from apoptosis, % (test concentration not listed) | actives 0.8% (n = 300,000);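 active means all replicates at 75% or more, or half of them and the mean; inconclusive means half reach 75% but not the mean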;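 further: 0% = cytokine-treated negative control wells and 100% = positive control rescue; higher means more ATP so stronger rescue from cytokine killing; wells of about 40 µL received 100 nL stock; the first replicate is given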
T cruzi repl – inhibitors of intracellular T. cruzi growth, primary screen, luminescence, NIH3T3 host cells | AID 1885, 2009 | inhibition, % (no concentration beside the values) | T. cruzi beta-gal in NIH3T3, 90 h | actives 1.4% (n = 300,000);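 active means mean inhibition across valid replicates above about 55%, limit read from the data; inconclusive means mean below that limit but half or more replicates reach it; inactive means mean below it, under half of replicates reach it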;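 further: signal also drops with host cell toxicity which is not excluded here; 0% = plate median of DMSO wells and 100% = zero luminescence signal; higher percent means less beta-gal luminescence so fewer parasites; stock transfer was 50 nL into about 50 µL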
Ecoli rRNA inh OD600 – second read-out of Ecoli rRNA inh, no call of its own (marks repeat the call); OD600 change, %; measured here: OD600 growth;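 optical density of the mix in the first replicate; 0 = DMSO median and -100 = no signal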
Ecoli rRNA inh RFP – also measured in Ecoli rRNA inh; calls as there; RFP signal change, %; measured here: RFP humanized mutant strains;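 first replicate; 0 = DMSO median and -100 = no signal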
* = called active by the depositor; ? = inconclusive; nt = no result given. Some of the compounds tested; rates above refer to the full screens.

smiles	Ecoli rRNA inh	Ecoli rRNA inh OD600	Bfl-1 A1 inh	T cruzi repl	Ecoli rRNA inh RFP	ALR H2O2 inh	Beta cell apopt	Beta2AR agonist	Calb FLC	LANA-H2A inh
COC(=O)C1CCN(C(=O)c2cc(S(=O)(=O)N3CCCCC3)ccc2Cl)CC1	-3	6	-0.5	nt	-1.0	1	-10	9	nt	0.5
COc1cccc(N2CCN(C(=O)Nc3ccc4c(c3)NC(=O)CO4)CC2)c1	nt	nt	0.0	-3	nt	21	6	3	-6	-1.2
O=C(NC1=NCCS1)c1ccccc1	6	7	-0.6	-2	-2.5	-8	3	-5	5	3.4
COc1ccc(OCCNS(=O)(=O)c2ccccc2)cc1	nt	nt	-0.6	2	nt	-10	-4	9	5	-3.3
COC(=O)NCc1ccc2c(c1)OCO2	nt	nt	0.7	-5	nt	-7	nt	1	3	4.3
CCc1ccccc1NNC(=O)c1snnc1C	1	4	0.3	8	0.4	44	-4	6	4	2.1
Cc1cc(=O)oc2c3c(cc(OCC(=O)N[C@H](C(=O)O)c4ccccc4)c12)OC(C)(C)CC3	-21	3	-1.2	2	-13	nt	-6	-14	-7	-0.9
Cc1ccc(C)c(NC(=O)NNS(=O)(=O)c2ccc(C)c(C)c2)c1	1	-12	0.7	-6	0.7	85*	-2	11	-1	2.7
CCOc1ccc2nc(NC(=O)c3c([N+](=O)[O-])cnn3CC)sc2c1	nt	nt	0.8	1	nt	-4	-1	-2	25	3.3
CCOC(=O)c1cn(CC(=O)Nc2ccc(C(C)C)cc2)nn1	nt	nt	-0.5	16	nt	-4	-3	-2	4	-1.5
O=C1CC(C(=O)Nc2ccc(F)cc2)n2cnnc2N1 (configuration not stated)	-4	-1	0.4	-25	0.4	9	-4	4	6	2.8
COC(=O)Nc1nc2ccc(SC(C)C)cc2[nH]1	15	20	-1.9	nt	3.2	-35	14	4	nt	-1.5
COc1ccc(C2=CC(c3ccc(C)cc3)n3nnnc3N2)cc1 (configuration not stated)	nt	nt	0.5	-14	nt	15	nt	16	-5	2.0
N#Cc1cccc(S(=O)(=O)NNC(=O)C23CC4CC(CC(C4)C2)C3)c1	-3	-26	-1.5	nt	-4.6	33	-7	-7	nt	-1.3
CCCC1=NN(C(=O)Cc2ccc(OC)c(OC)c2)C(O)(C(F)(F)F)C1 (configuration not stated)	-6	2	0.1	-13	1.4	nt	-8	1	-6	-1.0
N/C(=N\OC(=O)c1ccccc1Cl)c1ccccn1	2	0	-13	5	-2.5	-2	24	11	-3	1.7
Cc1cc(C)c(C)c(S(=O)(=O)N(C)CCc2ccccn2)c1C	-1	9	0.7	nt	4.8	-2	1	-14	nt	-3.5
S=C(c1ccc(N2CCCC2)cc1)N1CCCCC1	nt	nt	-3.1	nt	nt	99*	2	-2	nt	3.2
O=C(c1ccccc1)C1CCc2occc2C1=O (configuration not stated)	nt	nt	-0.9	10	nt	47	-11	-4	2	0.9
Cc1ccc(-c2cc(C(=O)NCCCn3ccnc3)c3ccccc3n2)s1	nt	nt	-0.1	6	nt	27	-2	-4	1	1.8
CC1CCCCN1S(=O)(=O)c1ccc2c(c1)C(C)(C)C(=O)N2C (configuration not stated)	-1	1	-0.7	-5	-1.4	-2	-3	5	11	-2.7
CC12CCC(C(=O)O)(c3nc4cc([N+](=O)[O-])ccc4nc31)C2(C)C (configuration not stated)	11	14	1.7	-5	-2.6	-11	0	-11	-4	5.2
C[C@@H]1C=C[C@](Cc2ccccc2)(C(=O)NCCc2c[nH]c3ccccc23)N1C(=O)c1ccccc1	-26	-38	1.5	30	-11	3	-4	8	6	-4.6
CNC(=S)N/N=C/c1ccc(-c2ccc(C(=O)O)cc2)o1	-3	1	-7.2	?	2.2	32	57	17	-4	-6.4
COc1ccc(CNC(=O)c2sc(=S)n(-c3ccccc3)c2N)cc1	3	6	-0.7	1	3.1	46	nt	7	-5	3.1

The list continues:
smiles	Ecoli rRNA inh	Ecoli rRNA inh OD600	Bfl-1 A1 inh	T cruzi repl	Ecoli rRNA inh RFP	ALR H2O2 inh	Beta cell apopt	Beta2AR agonist	Calb FLC	LANA-H2A inh
O=C(CSc1ccc(Cl)cc1)NC1CCCc2ccccc21 (configuration not stated)	8	2	0.8	13	2.3	-9	5	22	-5	1.5
O=C(Nc1ccc(C(=O)N2CCCCC2)cc1)c1ccc(Br)cc1	nt	nt	-0.7	-10	nt	-5	2	5	-3	-2.9
Cc1cccc(NC(=O)C2C(C(=O)O)C3C=CC2C32CC2)c1C (configuration not stated)	nt	nt	0.6	1	nt	-1	7	-33	-6	1.9
O=C(CC1C(=O)NCCN1Cc1c(F)cccc1Cl)NCCC1=CCCCC1 (configuration not stated)	-9	-1	0.0	3	-2.1	nt	-8	2	0	1.5
COc1cc(CCC(=O)OCC(=O)NCCc2ccc(S(N)(=O)=O)cc2)cc(OC)c1OC	7	12	0.0	nt	-1.4	2	-2	-4	nt	3.4
NC(=O)/C(=C\c1ccncc1)c1cccc2ccccc12	3	0	-0.3	-1	0.2	-25	-6	0	4	1.3
CCc1ccc(OCC(=O)NNC(=O)c2cnccn2)c(Br)c1	-50	-77	-0.3	-7	-17	-2	1	-4	19	4.5
CC(=O)Nc1ccc(-n2c(C)ccc2C)cc1	nt	nt	-0.9	-10	nt	49	-8	10	8	-2.8
CCN(CC)c1ccc(/C=N/Nc2nc(C)cc(=O)[nH]2)cc1	nt	nt	0.0	11	nt	99*	-2	-2	11	1.3
COc1ccc(C(=O)Nc2cc(OC)c(Cl)cc2Cl)cc1	10	5	1.7	-4	-2.6	0	-2	8	-20	2.6
COc1ccc(Cl)cc1-n1c(C)ccc1C	nt	nt	-0.7	-15	nt	-56	-13	3	2	0.0
COc1cc(CCC(=O)Nc2ccc(C)c(S(=O)(=O)N3CCCCCC3)c2)cc(OC)c1OC	nt	nt	1.7	nt	nt	nt	14	17	nt	-4.3
COc1ccccc1NC(=O)CSc1nnc(-c2ccco2)n1Cc1ccco1	nt	nt	0.5	-15	nt	0	-4	-6	6	-2.3
CC(C)(O)C#Cc1ccc(C(=O)N2CCN(c3ccccc3)CC2)cc1	nt	nt	-1.6	-9	nt	25	-6	-6	8	-2.6
COc1ccc(C(=O)CN(C(=O)c2ccc(Cl)cc2)N2C(=O)C3CCCCC3C2=O)cc1 (configuration not stated)	nt	nt	-3.4	-35	nt	-5	nt	-2	0	-0.7
Cc1cccc(OCC(=O)NCCNC(=O)c2cnccn2)c1	-8	-1	0.7	-9	-3.5	1	-7	7	-25	11
Cc1cc(=O)[nH]c(-c2ccc(C(F)(F)F)cc2)n1	10	4	-0.9	-7	0.0	-9	-3	-2	2	3.0
O=C(NCC1CCCO1)C1CCCN1C(=O)Nc1ccccc1[N+](=O)[O-] (configuration not stated)	7	10	0.7	-9	-0.9	-2	-3	-4	-7	-1.1
CCn1c(SCc2ccc(C)cc2)nnc1-c1nn(-c2ccccc2)ccc1=O	nt	nt	-0.1	29	nt	-12	-6	-23	-9	-0.5
CCOC(=O)C1=C(c2ccccc2)Nc2ncnn2C1c1cc(OC)ccc1OC (configuration not stated)	nt	nt	0.2	38	nt	1	1	-21	15	-1.5
CCOc1cc2ccccc2cc1C(=O)Nc1ccccn1	4	8	0.6	-6	-2.1	nt	-6	-8	1	-5.4
CCn1c(NC(=O)c2ccco2)c(-c2ccccc2Cl)c(=O)c2ccccc21	nt	nt	0.2	-5	nt	-6	-2	0	?	-2.6
O=S(=O)(NC1CCCCC1Oc1ccccc1)c1ccccc1 (configuration not stated)	-37	-41	0.3	17	-3.0	nt	-2	-4	-5	-0.7
COc1ccc(/C=C/c2c([N+](=O)[O-])c(=O)n(C)c(=O)n2C)c(OC)c1	17	10	0.2	0	4.6	5	-23	-2	12	-384
CC(C)C(=O)Nc1ncc(Cc2ccccc2Cl)s1	9	5	-1.2	19	5.1	0	0	-7	-9	-0.5

Later entries.
smiles	Ecoli rRNA inh	Ecoli rRNA inh OD600	Bfl-1 A1 inh	T cruzi repl	Ecoli rRNA inh RFP	ALR H2O2 inh	Beta cell apopt	Beta2AR agonist	Calb FLC	LANA-H2A inh
COc1ccc(-c2c(=O)n(OC)c3ccccc3[n+]2[O-])cc1OC	-2	-1	-1.6	7	0.1	30	-3	8	5	6.0
CCCC(C)NC(=O)CN(c1ccc2c(c1)OCCO2)S(=O)(=O)c1ccccc1 (configuration not stated)	-18	-13	0.4	-5	-2.4	0	-5	-2	3	2.1
CC(NC(=O)CCOc1ccccc1)c1ccccc1 (configuration not stated)	nt	nt	1.1	-7	nt	-12	-4	-1	2	-1.0
Cc1ccc(C(O)c2cccnc2)o1 (configuration not stated)	1	1	0.2	-18	2.4	-13	nt	2	-11	2.0
Cc1ccc(C)n1-n1c(C)nc2scc(-c3ccccc3)c2c1=O	nt	nt	1.4	-3	nt	nt	0	-6	55	0.6
Cc1cccc(N/C(N)=N/c2nc(C)c(Cc3ccccc3)c(=O)[nH]2)c1	-6	-4	0.5	nt	-0.3	-13	32	-1	11	-0.6
COc1ccc(OC)c(C2/C(=C(/O)c3ccccc3)C(=O)C(=O)N2Cc2ccco2)c1 (configuration not stated)	13	8	-0.4	-3	1.7	-52	2	0	34	8.5
NC(=O)C1CCN(C(=O)CN2CCCc3ccccc32)CC1	nt	nt	-0.3	4	nt	-76	-3	-4	-4	1.7
Cc1ccccc1C(=O)O	5	7	0.2	nt	0.5	1	4	-4	nt	2.0
O=C(Nc1ccnn1C1CCN(Cc2cc(Cl)ccc2O)CC1)c1cccnc1	-2	2	0.6	-4	-2.2	3	-5	3	-11	5.9
